EPAC2 antag: validation of human EPAC2 antagonists; AID 1645886; Potency, µM (top dose mostly 112 µM), without a hit: at the top dose activity, negative = inhibition, usual class: inhibitors; EPAC2 Rap1B BODIPY-GDP exchange, fluorescence; actives 1.7% (n = 16,000); Q8WZA2; active means well fitted inhibition curve with a large enough effect; inconclusive means small, poorly fitted or top-dose-only effect; inactive means no such curve, though single readings can be large or run the other way;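 further: 100% = activation by cAMP agonist control; nearly all actives have a fitted effect of over 40% in size; the record reuses the description of the EPAC1 agonist screen; inactives centre near -10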
Target sequence (Q8WZA2 whole entry, looked up): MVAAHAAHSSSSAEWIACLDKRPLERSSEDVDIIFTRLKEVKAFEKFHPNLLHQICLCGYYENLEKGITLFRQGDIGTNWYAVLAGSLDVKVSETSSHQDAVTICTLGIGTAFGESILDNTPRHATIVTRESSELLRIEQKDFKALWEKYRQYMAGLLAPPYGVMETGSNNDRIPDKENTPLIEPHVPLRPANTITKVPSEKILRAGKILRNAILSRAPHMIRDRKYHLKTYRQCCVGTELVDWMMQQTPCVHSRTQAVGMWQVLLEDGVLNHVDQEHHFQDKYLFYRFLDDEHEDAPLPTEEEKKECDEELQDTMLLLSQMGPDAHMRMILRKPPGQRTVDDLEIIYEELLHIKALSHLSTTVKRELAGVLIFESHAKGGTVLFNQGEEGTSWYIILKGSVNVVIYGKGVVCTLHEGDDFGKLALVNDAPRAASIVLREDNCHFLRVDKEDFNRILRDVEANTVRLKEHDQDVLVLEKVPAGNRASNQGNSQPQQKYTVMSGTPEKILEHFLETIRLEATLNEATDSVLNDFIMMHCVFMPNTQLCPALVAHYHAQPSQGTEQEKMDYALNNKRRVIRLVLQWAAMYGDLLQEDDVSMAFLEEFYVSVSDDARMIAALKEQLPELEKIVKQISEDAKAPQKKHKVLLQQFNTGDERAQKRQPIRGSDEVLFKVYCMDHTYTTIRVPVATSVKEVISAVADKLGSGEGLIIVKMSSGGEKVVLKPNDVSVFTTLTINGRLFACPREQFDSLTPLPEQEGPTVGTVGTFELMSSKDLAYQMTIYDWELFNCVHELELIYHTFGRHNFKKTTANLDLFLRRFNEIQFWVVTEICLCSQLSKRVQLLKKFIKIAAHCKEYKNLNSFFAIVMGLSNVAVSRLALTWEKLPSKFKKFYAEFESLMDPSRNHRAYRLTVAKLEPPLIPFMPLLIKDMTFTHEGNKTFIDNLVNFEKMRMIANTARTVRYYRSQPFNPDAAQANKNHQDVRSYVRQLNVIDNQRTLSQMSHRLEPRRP
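Fluorescent exchange read-out: 100 nM EPAC2 with 250 nM RAP1B–BODIPY-GDP and 50 uM GDP; BODIPY-GDP release lowers fluorescence. Read at 480/540 nm every 5 min for 30 min at room temperature; normalized to 6.5 mM cAMP.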
* hit, by the source's call; ? = inconclusive; & = joins results of further samples; [ ] = remark or other dose. Potency means the concentration at half of the fitted maximal effect.

(1) CCN(CC)CCOC(=O)c1ccc(N)cc1
  EPAC2 antag: -24%

(2) COc1ccc(C2CNC(=O)C2)cc1OC1CCCC1 (centres undefined)
  EPAC2 antag: 1%

(3) Cc1c(C(=O)O)c(O)cc2c1C(=O)c1c(O)c([C@@H]3O[C@H](CO)[C@@H](O)[C@H](O)[C@H]3O)c(O)c(O)c1C2=O
  EPAC2 antag: ?

(4) NC(=O)C1(N2CCCCC2)CCN(CCCC(=O)c2ccc(F)cc2)CC1
  EPAC2 antag: 24%

(5) COc1c(O)cc2c(c1O)C1OC(CO)C(O)[C@H](O)[C@H]1OC2=O (some centres undefined)
  EPAC2 antag: -13%

(6) C/C=C/C(=O)N(CC)c1ccccc1C
  EPAC2 antag: -14%

(7) c1cnc2cc3c(cc2n1)[C@@H]1CNC[C@H]3C1
  EPAC2 antag: -3%

(8) CCOC(=O)[C@H](CCc1ccccc1)N[C@@H](C)C(=O)N1Cc2ccccc2C[C@H]1C(=O)O
  EPAC2 antag: -9%

(9) CCCCNc1ccc(C(=O)OCCN(C)C)cc1
  EPAC2 antag: -7%

(10) O=c1cc(O)c(Cl)c[nH]1
  EPAC2 antag: 10%

(11) O=C(O)CCC(=O)c1ccc(-c2ccccc2)cc1
  EPAC2 antag: -33%[56.6 µM]

(12) COc1ccc(-c2cc(=O)c3c(O)cc(O[C@@H]4O[C@H](CO[C@@H]5O[C@@H](C)[C@H](O)[C@@H](O)[C@H]5O)[C@@H](O)[C@H](O)[C@H]4O)cc3o2)cc1O
  EPAC2 antag: -22%

(13) CC[C@H](NC(C)C)[C@H](O)c1ccc(O)c2[nH]c(=O)ccc12
  EPAC2 antag: -18%&-18%

(14) CC1(C)[C@H](O[C@H]2O[C@H](C(=O)O)[C@@H](O)[C@H](O)[C@H]2O[C@@H]2O[C@H](C(=O)O)[C@@H](O)[C@H](O)[C@H]2O)CC[C@@]2(C)[C@H]1CC[C@]1(C)[C@H]2C(=O)C=C2[C@H]3C[C@@](C)(C(=O)O)CC[C@]3(C)CC[C@]21C
  EPAC2 antag: ?

(15) N[C@@H](Cc1c[nH]c2ccc(O)cc12)C(=O)O
  EPAC2 antag: -19%&1%

(16) N#Cc1ccc(C(c2ccc(C#N)cc2)n2cncn2)cc1
  EPAC2 antag: 5%[56.6 µM]

(17) CC1Cc2ccccc2N1NC(=O)c1ccc(Cl)c(S(N)(=O)=O)c1 (centres undefined)
  EPAC2 antag: -7%

(18) CC1(C)C2CC[C@]3(C)[C@H](C(=O)C=C4[C@@H]5C[C@@](C)(C(=O)O)CC[C@]5(C)CC[C@]43C)[C@@]2(C)CC[C@@H]1O[C@H]1O[C@H](C(=O)O)[C@@H](O)[C@H](O)[C@H]1O[C@@H]1O[C@H](C(=O)O)[C@@H](O)[C@H](O)[C@H]1O (some centres undefined)
  EPAC2 antag: ?

(19) CN1CCCN=C1COC(=O)C(O)(c1ccccc1)C1CCCCC1 (centres undefined)
  EPAC2 antag: -8%

(20) Oc1ccc(/C=C\c2cc(O)cc(O)c2)cc1
  EPAC2 antag: 28µM*

(21) C[C@H](O)CN(C)C
  EPAC2 antag: -10%

(22) CC(=O)Oc1ccc(C(=C2CCCCC2)c2ccc(OC(C)=O)cc2)cc1
  EPAC2 antag: 9%

(23) CCCOC(=O)c1ccc(N)cc1
  EPAC2 antag: -26%

(24) COc1cc2ncnc(Nc3cccc(Cl)c3)c2cc1OC
  EPAC2 antag: ?

(25) CO/N=C(/C(=O)N[C@@H]1C(=O)N2C(C(=O)O)=C(Cn3nnc(C)n3)CS[C@H]12)c1csc(N)n1
  EPAC2 antag: -11%

(26) Oc1ccc(C2CNCCc3c2cc(O)c(O)c3Cl)cc1 (centres undefined)
  EPAC2 antag: -8%&0%

(27) Cc1ccc(S(=O)(=O)NC(=O)NC2CCCCC2)cc1
  EPAC2 antag: -18%

(28) CCNC(=O)NCCCOc1cccc(CN2CCCCC2)c1
  EPAC2 antag: -5%

(29) Oc1ccc2c(c1)OCC1(O)Cc3cc(O)c(O)cc3C21 (centres undefined)
  EPAC2 antag: -5%

(30) CNC1C(O)C2OC3OC(C)CC(=O)[C@@]3(O)O[C@H]2[C@H](NC)C1O (some centres undefined)
  EPAC2 antag: -3%

(31) Cc1ccc(N(CC2=NCCN2)c2cccc(O)c2)cc1
  EPAC2 antag: 3%

(32) CNCCCN1c2ccccc2CCc2ccccc21
  EPAC2 antag: 11%

(33) C[N+]1(C)CCC(=C(c2ccccc2)c2ccccc2)CC1
  EPAC2 antag: -6%&10%[56.6 µM]

(34) C1COC(NC(C2CC2)C2CC2)=N1
  EPAC2 antag: -19%&-28%&-17%

(35) N[C@H]1CN(c2c(F)cc3c(=O)c(C(=O)O)cn(C4C[C@@H]4F)c3c2Cl)CC12CC2 (some centres undefined)
  EPAC2 antag: 13%

(36) CC(C(=O)O)c1ccc2c(c1)CC(=O)c1ccccc1S2 (centres undefined)
  EPAC2 antag: -11%

(37) CCCCC(=O)O[C@@]1(C(=O)CO)C(C)CC2C3CCC4=CC(=O)C=C[C@@]4(C)[C@]3(F)C(O)C[C@]21C (some centres undefined)
  EPAC2 antag: -20%

(38) CC(=O)Nc1ccc(CC(=O)O)cc1
  EPAC2 antag: -5%

(39) CCOC(N)=O
  EPAC2 antag: -14%

(40) CN(C)CCCC1(c2ccc(F)cc2)OCc2cc(C#N)ccc21 (centres undefined)
  EPAC2 antag: 8%

(41) COc1ccc(-c2cc(=S)ss2)cc1
  EPAC2 antag: ?

(42) c1cnc2cc3c(cc2n1)C1CNCC3C1
  EPAC2 antag: 13%[239 µM]

(43) C=C1c2cccc(O)c2C(O)=C2C(=O)[C@]3(O)C(O)=C(C(N)=O)C(=O)C(N(C)C)C3C(O)C12 (some centres undefined)
  EPAC2 antag: 19%

(44) CO/N=C(/C(=O)N[C@@H]1C(=O)N2C(C(=O)[O-])=C(C[n+]3ccn4ncccc43)CS[C@H]12)c1nsc(N)n1
  EPAC2 antag: 49%&20%[activator]

(45) NOCC(=O)O
  EPAC2 antag: -29%

(46) CCCCNc1ccc(C(=O)OCCOCCOCCOCCOCCOCCOCCOCCOCCOC)cc1
  EPAC2 antag: -24%[56.6 µM]

(47) Cc1c(Cn2ccnc2)c2ccccc2n1CCC(=O)O
  EPAC2 antag: 21%

(48) COc1nccc(-c2c(-c3ccc(F)cc3)ncn2C2CCC(O)CC2)n1 (centres undefined)
  EPAC2 antag: -32%

(49) NC1CCN(c2nc3c(cc2F)c(=O)c(C(=O)O)cn3-c2ccc(F)cc2F)C1 (centres undefined)
  EPAC2 antag: 7%

(50) O=C(O)c1cccnc1Nc1cccc(C(F)(F)F)c1
  EPAC2 antag: -6%

Structures above that have two or more sulfur atoms:
(25) CO/N=C(/C(=O)N[C@@H]1C(=O)N2C(C(=O)O)=C(Cn3nnc(C)n3)CS[C@H]12)c1csc(N)n1
  EPAC2 antag: -11%

(41) COc1ccc(-c2cc(=S)ss2)cc1
  EPAC2 antag: ?

(44) CO/N=C(/C(=O)N[C@@H]1C(=O)N2C(C(=O)[O-])=C(C[n+]3ccn4ncccc43)CS[C@H]12)c1nsc(N)n1
  EPAC2 antag: 49%&20%[activator]

Remaining list, next part
(51) CC1CC2C3CCC4=CC(=O)C=C[C@]4(C)[C@@]3(Cl)C(O)C[C@]2(C)C1(OC(=O)c1ccco1)C(=O)CCl (some centres undefined)
  EPAC2 antag: -28%

(52) CC(=O)CCCCn1c(=O)c2c(ncn2C)n(C)c1=O
  EPAC2 antag: -11%

(53) CCNC(=O)NCc1cccc(Cl)c1
  EPAC2 antag: -3%

(54) NC(N)=O
  EPAC2 antag: -2%&-17%

(55) CC(C)COC(=O)c1ccc(N)cc1
  EPAC2 antag: -11%

(56) CCOC(=O)[C@H](CCc1ccccc1)N[C@H]1CS[C@H](c2cccs2)CN(CC(=O)O)C1=O
  EPAC2 antag: 9%

(57) CCn1cc(C(=O)O)c(=O)c2cnc(N3CCNCC3)nc21
  EPAC2 antag: -11%[56.6 µM]

(58) CCCCCC(=O)O[C@]1(C(C)=O)CC[C@H]2[C@@H]3CCC4=CC(=O)CC[C@]4(C)[C@H]3CC[C@@]21C
  EPAC2 antag: 7%

(59) Cn1cc(S(C)=O)c(=O)c2ccc(F)cc21 (centres undefined)
  EPAC2 antag: 23%

(60) O=c1oc2c(O)c(O)cc3c(=O)oc4c(O)c(O)cc1c4c23
  EPAC2 antag: 15%

(61) COc1ccccc1OCC1CNC(=O)O1 (centres undefined)
  EPAC2 antag: -6%

(62) Cc1ccc(=O)n(-c2ccccc2)c1
  EPAC2 antag: 1%&7%&-20%

(63) Oc1cc2c(cc1O)[C@H]1c3ccc(O)c(O)c3OC[C@@]1(O)C2
  EPAC2 antag: -13%

(64) C=CCn1c(=O)n([C@@H]2O[C@H](CO)[C@@H](O)[C@H]2O)c2nc(N)[nH]c(=O)c21
  EPAC2 antag: 6%

(65) CCN(CC)CCNC(C(=O)OCCC(C)C)c1ccccc1 (centres undefined)
  EPAC2 antag: -2%

(66) CC12CC3CC(C)(C1)CC(N)(C3)C2
  EPAC2 antag: -17%&-10%&13%

(67) CCCCCCCCCCCCCCC[C@H](O)[C@@H](N)CO
  EPAC2 antag: -5%[11.4 µM]

(68) COc1cc(N)c(Cl)cc1C(=O)N[C@H]1CCN(CCCOc2ccc(F)cc2)C[C@@H]1OC
  EPAC2 antag: ?

(69) CCc1ccc(CCOc2ccc(CC3SC(=O)NC3=O)cc2)nc1 (centres undefined)
  EPAC2 antag: 2%&3%

Compounds shown so far that contain a halogen (15):
(4) NC(=O)C1(N2CCCCC2)CCN(CCCC(=O)c2ccc(F)cc2)CC1
  EPAC2 antag: 24%

(10) O=c1cc(O)c(Cl)c[nH]1
  EPAC2 antag: 10%

(17) CC1Cc2ccccc2N1NC(=O)c1ccc(Cl)c(S(N)(=O)=O)c1 (centres undefined)
  EPAC2 antag: -7%

(24) COc1cc2ncnc(Nc3cccc(Cl)c3)c2cc1OC
  EPAC2 antag: ?

(26) Oc1ccc(C2CNCCc3c2cc(O)c(O)c3Cl)cc1 (centres undefined)
  EPAC2 antag: -8%&0%

(35) N[C@H]1CN(c2c(F)cc3c(=O)c(C(=O)O)cn(C4C[C@@H]4F)c3c2Cl)CC12CC2 (some centres undefined)
  EPAC2 antag: 13%

(37) CCCCC(=O)O[C@@]1(C(=O)CO)C(C)CC2C3CCC4=CC(=O)C=C[C@@]4(C)[C@]3(F)C(O)C[C@]21C (some centres undefined)
  EPAC2 antag: -20%

(40) CN(C)CCCC1(c2ccc(F)cc2)OCc2cc(C#N)ccc21 (centres undefined)
  EPAC2 antag: 8%

(48) COc1nccc(-c2c(-c3ccc(F)cc3)ncn2C2CCC(O)CC2)n1 (centres undefined)
  EPAC2 antag: -32%

(49) NC1CCN(c2nc3c(cc2F)c(=O)c(C(=O)O)cn3-c2ccc(F)cc2F)C1 (centres undefined)
  EPAC2 antag: 7%

(50) O=C(O)c1cccnc1Nc1cccc(C(F)(F)F)c1
  EPAC2 antag: -6%

(51) CC1CC2C3CCC4=CC(=O)C=C[C@]4(C)[C@@]3(Cl)C(O)C[C@]2(C)C1(OC(=O)c1ccco1)C(=O)CCl (some centres undefined)
  EPAC2 antag: -28%

(53) CCNC(=O)NCc1cccc(Cl)c1
  EPAC2 antag: -3%

(59) Cn1cc(S(C)=O)c(=O)c2ccc(F)cc21 (centres undefined)
  EPAC2 antag: 23%

(68) COc1cc(N)c(Cl)cc1C(=O)N[C@H]1CCN(CCCOc2ccc(F)cc2)C[C@@H]1OC
  EPAC2 antag: ?

Compound activity from PubChem BioAssay.

The list is partial; count on the stated rates, not on these rows.
